# Screens from PubChem BioAssay.
# ALR inh – inhibitors of human sulfhydryl oxidase ALR; P55789; purified ALR, DTT oxidation, H2O2 HRP-luminol luminescence; inhibition, % (test concentration not listed); 290,000 compounds, 3.8% hits; AID 485317;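 active = mean and each replicate at 75% or more; inconclusive = only one of the two met; inactive = neither met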;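 note: stock transfer was 7.5 nL into about 7.5 µL; 0% = neutral wells and 100% = wells with inactivated enzyme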
# Target sequence (P55789 whole entry, looked up): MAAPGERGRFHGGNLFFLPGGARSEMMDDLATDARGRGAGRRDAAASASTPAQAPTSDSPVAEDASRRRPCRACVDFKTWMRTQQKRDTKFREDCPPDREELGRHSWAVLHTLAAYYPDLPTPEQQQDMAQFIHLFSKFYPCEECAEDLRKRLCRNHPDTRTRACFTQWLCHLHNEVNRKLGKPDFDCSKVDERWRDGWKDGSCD
# FGF22 binding – shifts melting point of recombinant human FGF22. recombinant FGF22 thermal shift, SYPRO orange fluorescence; percent of sucrose octasulfate shift, DMSO zero. calls only at 9.99 µM. 340,000 compounds, 1.5% hits;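 active = melting point raised past a set limit in the mean and every replicate; inconclusive = no clear call; three in four hits are not shown here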
# Target sequence (Q9HCT0 whole entry, looked up): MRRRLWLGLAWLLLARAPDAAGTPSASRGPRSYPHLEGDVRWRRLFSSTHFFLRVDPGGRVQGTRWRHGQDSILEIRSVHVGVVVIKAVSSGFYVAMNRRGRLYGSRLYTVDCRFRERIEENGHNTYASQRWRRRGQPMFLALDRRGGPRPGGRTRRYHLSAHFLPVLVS
# E coli growth – blocks Escherichia coli growth; OD600, 23 h; hits give low values; OD600 absorbance (no concentration beside the values); 330,000 compounds, 0.21% hits;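 active = OD600 absorbance below the run mean of sample wells minus 3.6 SD, in any replicate, cut at about 0.56 in these data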;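 note: stock transfer was 300 nL into about 60 µL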
# HNF4A DNA FP – change in binding of human HNF4 alpha to DNA | P41235 | HNF4a-FITC DNA binding, fluorescence polarization, 1 h | AID 1224865 | 360,000 compounds, 0.3% hits | activity change, % at 10 µM; in the data active = activity change above about 30%, passing the limit was not always enough;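 note: controls were the assay level and a saturating level of protein; the project sought stronger binding though the title names inhibitors; some compounds called inactive have numbers as strong as hits; positive values seem to mean higher polarization but the record does not say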
# Target sequence (P41235 whole entry, looked up): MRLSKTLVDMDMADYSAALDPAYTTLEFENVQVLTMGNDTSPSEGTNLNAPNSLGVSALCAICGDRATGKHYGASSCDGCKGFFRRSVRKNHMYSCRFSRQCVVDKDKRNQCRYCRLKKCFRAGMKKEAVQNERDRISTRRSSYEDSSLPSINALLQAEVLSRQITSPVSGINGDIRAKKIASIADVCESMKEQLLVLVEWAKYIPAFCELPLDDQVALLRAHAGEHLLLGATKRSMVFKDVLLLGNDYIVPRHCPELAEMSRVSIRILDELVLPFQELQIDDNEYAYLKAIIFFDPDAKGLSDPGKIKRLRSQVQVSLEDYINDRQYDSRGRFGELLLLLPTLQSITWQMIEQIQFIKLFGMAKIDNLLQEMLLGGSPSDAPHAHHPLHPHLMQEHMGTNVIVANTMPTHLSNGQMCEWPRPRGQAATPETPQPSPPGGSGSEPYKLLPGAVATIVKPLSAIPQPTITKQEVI
# rRNA inh HTS – selective bacterial rRNA inhibition in E. coli; GFP signal change (wild-type ribosome), % (concentration not given with the values); 350,000 compounds, 1.6% hits; E. coli WT GFP vs humanized-ribosome RFP mutants, fluorescence, 24 h; hits give low values; DMSO median 0, no signal -100;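 active = significant combined selectivity score with lowered wild-type GFP, culture density cut under 30%, mutant RFP and density less affected; inactive = any of these conditions unmet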; note: one replicate is shown; some compounds called inactive have numbers as strong as hits
# Vif A3G – HIV-1 Vif–A3G interaction blockers – biochemical, TR-FRET, GST-Vif 1-94, biotin-A3G peptide, dose response retest, primary screen (AID 1117319); TR-FRET GST-Vif / biotin-A3G peptide binding; higher % means a stronger effect; test concentration not given here; strong numbers were not always called active; inhibition, %, or IC50 in µM where a hit was titrated; 260,000 compounds, 0.57% hits;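 active = above the screen mean plus three standard deviations and confirmed in dose response; inconclusive = results disagree or hit not tested in dose response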;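 note: Vif residues 1-94 fused to GST binding biotinylated APOBEC3G peptide 110-148; 0% = full assay without inhibitor and 100% = GST in place of GST-Vif; retest series ran down from 100 µM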
# MLL AF4-AF9 inh – blocks AF4 peptide binding to human AF9; 350,000 compounds, 0.47% hits; AID 651704; AlphaScreen, biotin-AF4 peptide binding to FLAG-AF9; inhibition, % at 10 µM;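 active = every replicate reaching a set inhibition limit, whatever the replicate mean, cut at about 25% in these data; inconclusive = mean inhibition reaches that limit but some replicates miss it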;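 note: 0% = plate neutral control median and 100% = total signal loss; the record names both 10 and 1 µM as test concentration; the first replicate is given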
# rRNA inh HTS OD600 – further read-out of rRNA inh HTS, marked with its call; OD600 change, %; measured here: OD600 growth;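 optical density of the mix in the first replicate; 0 = DMSO median and -100 = no signal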
# rRNA inh HTS RFP – further read-out of rRNA inh HTS, marked with its call; RFP signal change, %; measured here: RFP humanized mutant strains;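 first replicate; 0 = DMSO median and -100 = no signal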
# * hit, by the source's call; i = inactive; ? = inconclusive; . = not tested or not shown; & = joins results of further samples. This is a subset. The share of hits here may be higher or lower than overall.
Structure,E coli growth,ALR inh,MLL AF4-AF9 inh,rRNA inh HTS OD600,FGF22 binding,rRNA inh HTS RFP,Vif A3G,HNF4A DNA FP,rRNA inh HTS
C/C=C/c1cnc2c(c1)C(=O)N([C@@H](C)CO)C[C@@H](C)[C@@H](CN(C)S(=O)(=O)c1ccc(OC)cc1)O2,.,.,-9.0,15,i,-1.6,.,.,5
CS(=O)(=O)NCCSc1nnnn1-c1ccccc1,0.7,-3,.,.,.,.,2%,3.2,.
CC1(C)CC(=O)c2sc(NC(=O)CN3CCOCC3)nc2C1,0.69,-9,.,.,.,.,1%,-4.7,.
O=C1CN(C(=O)COc2ccccc2F)c2ccccc2N1,0.7,-6,.,.,.,.,10%,3.3,.
CCc1ccc(-c2cc(C(F)(F)F)n3nc(C(=O)Nc4cnn(Cc5ccc(C)cc5)c4)cc3n2)s1,0.69,-3,.,.,.,.,2%,1.9,.
COc1ccc(NC(=O)C2=NN(C3CCS(=O)(=O)C3)C(=O)CC2)cc1S(N)(=O)=O (stereo not drawn),0.71,-4,-4.2,14,i,-0.8,0%,-1.7,9
CC1CC(=O)C2=C(C1)Nc1ccccc1SC2c1ccc(F)cc1 (stereo not drawn),0.68,-17,3.6,-52,i,15,-2%,0.4,-7
Cc1ccc(/C=C/C(=O)OCC(=O)NCc2ccc(Cl)cc2)o1,0.7,.,-2.0,.,i,.,.,0.9,.
C[C@H]1CN([C@@H](C)CO)C(=O)c2cc(C#CCN(C)C)cnc2O[C@@H]1CN(C)S(=O)(=O)c1cn(C)cn1,.,.,-5.2,16,i,-4.1,.,.,9
Cc1ccccc1NC(=O)c1sc2nc[nH]c(=O)c2c1C,0.68,-3,.,.,.,.,7%,-4.1,.
CCOc1ccccc1Nc1nc2ccc(C)cc2n2cnnc12,0.66,.,-0.5,5,i,2.6,-38%,4.4,13
COc1cc(NC(=O)c2cc(C)on2)cc(OC)c1OC,0.67,-2,-48,5,i,-0.3,1%,0.1,0
Cc1cc2ncn(S(=O)(=O)c3ccc(F)cc3)c2cc1C,0.72,5,-1.7,16,i,3.9,-4%,-2.1,28
CC1CCCN(C(=O)CN2C(=O)c3ccccc3C2=O)C1 (stereo not drawn),0.73,-1,.,10,.,-4.0,-4%,1.8,5
CCCCN1CC[C@H]2C=CC[C@@H](C(=O)NCCc3ccccc3)[C@H]2C1=O,.,1,.,-9,i,-3.4,.,1.6,-2
COc1ccc(CN(C)C[C@H]2Oc3ccc(NC(=O)Nc4ccc(F)cc4)cc3C(=O)N([C@@H](C)CO)C[C@@H]2C)cc1,.,.,1.0,-5,i,-0.4,.,.,1
CC1CN(C(=S)NC(=O)c2ccc(Cl)cc2)CC(C)O1 (stereo not drawn),0.72,1,0.6,-5,i,-1.9,.,0.2,4
CC(=O)NC[C@H]1[C@@H](c2ccc(-c3cccnc3)cc2)[C@@H](CO)N1C(=O)C1CC1,.,.,-1.0,2,i,0.3,.,.,1
COc1cc(CCC(=O)OCC(=O)Nc2ccc(C)cc2Cl)cc(OC)c1OC,0.67,-6,-33,-4,i,1.7,.,2.3,-4
COc1ccc(-c2c(=O)n(OCc3ccccc3[N+](=O)[O-])c3ccccc3[n+]2[O-])c(OC)c1,0.67,-6,13,-6,i,-4.7,.,-5.0,2
C[C@H](CO)N1C[C@H](C)[C@@H](CN(C)S(=O)(=O)c2cn(C)cn2)Oc2ccc(NS(=O)(=O)c3ccccc3)cc2C1=O,0.81,1,-2.3&-18,4&9,i,1.2&-4.5,.,-0.1,3&2
O=C(COC(=O)c1ccc(F)c([N+](=O)[O-])c1)NC(=O)NCc1ccccc1,0.64,.,-2.2,.,i,.,.,-3.9,.
C[C@@H]1CCCCO[C@H](CN(C)S(=O)(=O)c2ccccc2)[C@@H](C)CN([C@H](C)CO)C(=O)c2cc(NC(=O)Nc3ccccc3)ccc2O1,.,.,1.4,-1,i,1.6,.,.,1
COc1ccc(CCN2CC(C(=O)NCCc3ccccc3C(F)(F)F)CCC2=O)cc1 (stereo not drawn),0.64,-3,0.6,-8,i,1.6,.,2.1,-3
COc1ccc(N2CCN(S(=O)(=O)c3ccc4c(c3)N(C(C)=O)CCO4)CC2)cc1,0.68,90*,1.9,-2,i,2.3,.,3.1,3
CCOc1ccc(S(=O)(=O)N(C)c2ccc(OCC(=O)NCC3CCCO3)cc2)cc1 (stereo not drawn),0.7,-15,-0.9,-17,i,2.1,2%,-4.1,-18
COc1ccc(C2=NO[C@@H]3C(=O)N(Cc4ccccc4)C(=O)[C@H]23)cc1OC,0.64,-4,.,.,.,.,1%,0.6,.
OC1O[C@H](c2ccc3c(c2)OCO3)[C@H]2CO[C@H](c3ccc4c(c3)OCO4)[C@@H]12 (stereo partly drawn),.,4,.,-7,i,-2.2,.,3.0,-4
Cc1ccsc1/C=N/n1c(-c2ccccn2)n[nH]c1=S,.,68,-7.2,4,i,1.2,.,2.0,4
CNC(=O)/C(C#N)=C/c1c(N2CCN(c3ccccc3)CC2)nc2c(C)cccn2c1=O,0.63,7,-0.7,12,i,3.4,-1%,4.7,14
Cn1c(=O)c2cc(S(=O)(=O)N3CCC(c4ccccc4)CC3)ccc2n(C)c1=O,0.69,-5,.,.,.,.,4%,-0.8,.
CC(C)=C1C2CCC1C1C(=O)N(c3nccs3)C(=O)C21 (stereo not drawn),0.68,-10,-0.6,.,i,.,2%,5.0,.
COc1ccc(OCC(=O)Nc2cccc(C(C)=O)c2)cc1,0.67,-24,.,.,.,.,16%,-4.2,.
C[C@H](CO)N1C[C@H](C)[C@H](CN(C)S(=O)(=O)c2ccccc2)Oc2ccc(NS(C)(=O)=O)cc2CC1=O,.,.,-1.8,7,i,-0.3,.,.,-1
Cc1cc(NC(=O)c2ccc(C#N)cc2)n(-c2ccccn2)n1,0.71,-5,-6.3,1,i,0.3,.,0.0,8
O=C(NCc1ccco1)/C(=C/C=C\c1ccccc1)NC(=O)c1ccc(Br)o1,0.7,-3,5.6,-7,i,6.7,10%,-4.8,-18
Cc1ccc(S(=O)(=O)Nc2ccc3c(c2)C(=O)N([C@@H](C)CO)C[C@H](C)[C@H](CN(C)Cc2ccc(C(F)(F)F)cc2)OCCCC[C@@H](C)O3)cc1,.,.,-1.4,15,i,0.1,.,.,2
CC(C)Oc1ccc(CN2CCC2(C)C(=O)Nc2ccc(Cl)c(Cl)c2)cc1 (stereo not drawn),.,.,-3.4,-8,i,0.5,.,-4.5,5
O=[N+]([O-])c1cccc(S(=O)(=O)N/N=C\c2ccc3c(c2)OCO3)c1,.,27,-3.3,13,i,-0.4,.,-3.5,8
O=S(=O)(c1ccccc1)N(CC1CO1)c1cccc2ccccc12 (stereo not drawn),0.68,-1,-1.0,-46,.,-3.3,16%,2.2,-38
C[C@H](CO)N1C[C@H](C)[C@H](CN(C)C(=O)Nc2ccc3c(c2)OCO3)Oc2ccc(NS(=O)(=O)c3cccs3)cc2CC1=O,.,.,-0.6,0,i,-1.9,.,.,2
COc1ccc(NC(=O)Nc2ccc3c(c2)C(=O)N([C@@H](C)CO)C[C@@H](C)[C@@H](CN(C)S(C)(=O)=O)OCCCC[C@@H](C)O3)cc1,.,.,-0.3,8,i,2.1,.,.,-2
CC(C)N(Cc1nc(-c2ccccc2)no1)C(=O)c1ccc2c(c1)OCO2,0.74,69,-4.5,-22*,i,-1.9*,1%,5.1,-29*
O=C(c1ccc(N2CCOCC2)nc1)N1CCCCC1,0.7,-4,-6.8,5,i,-1.2,6%,-1.1,16
O=C(NNc1ccccc1[N+](=O)[O-])Nc1ccc(F)cc1F,0.63,1,3.0,9,i,-1.2,-6%,9.8,1
CN(C)CC(=O)Nc1ccc2c(c1)[C@H]1C[C@@H](CC(=O)NCCc3ccccc3)O[C@@H](CO)[C@H]1O2,.,.,-0.9,7,i,-1.0,.,.,3
CC(C)C(NC(=O)C(c1ccccc1)c1ccccc1)c1nc2ccccc2[nH]1 (stereo not drawn),0.68,-6,.,.,.,.,-4%,-1.1,.
CCc1c(C)nc(SCC(=O)NNC(=O)Cc2ccc(OC)cc2)[nH]c1=O,0.7,0,-2.6,5,i,1.1,?,-0.1,14

# Only Vif A3G and MLL AF4-AF9 inh, for 5 of the compounds above:
structure | Vif A3G | MLL AF4-AF9 inh
CCc1ccc(-c2cc(C(F)(F)F)n3nc(C(=O)Nc4cnn(Cc5ccc(C)cc5)c4)cc3n2)s1 | 2% | .
O=C(NNc1ccccc1[N+](=O)[O-])Nc1ccc(F)cc1F | -6% | 3.0
CC(C)Oc1ccc(CN2CCC2(C)C(=O)Nc2ccc(Cl)c(Cl)c2)cc1 (stereo not drawn) | . | -3.4
C[C@@H]1CCCCO[C@H](CN(C)S(=O)(=O)c2ccccc2)[C@@H](C)CN([C@H](C)CO)C(=O)c2cc(NC(=O)Nc3ccccc3)ccc2O1 | . | 1.4
Cn1c(=O)c2cc(S(=O)(=O)N3CCC(c4ccccc4)CC3)ccc2n(C)c1=O | 4% | .

# Carrying on:
Structure,E coli growth,ALR inh,MLL AF4-AF9 inh,rRNA inh HTS OD600,FGF22 binding,rRNA inh HTS RFP,Vif A3G,HNF4A DNA FP,rRNA inh HTS
COc1cccc(NC(=O)CSC(N)=O)c1,0.73,.,.,.,.,.,-16%,1.0,.
CSc1cccc(NC(=O)C(C)Sc2ccc(C)cc2)c1 (stereo not drawn),0.67,-5,.,.,.,.,-6%,-3.8,.
O=C(O)C(Cc1ccccc1)NS(=O)(=O)c1ccc(Cl)cc1 (stereo not drawn),0.69,-6,-2.3,6,i,7.8,3%,-2.5,0
CC(O)CNCCCOc1cccc(Oc2ccccc2)c1 (stereo not drawn),0.69,-4,1.7,2,i,3.8,-3%,-1.3,14
NNc1nc(Nc2ccccc2)nc(N2CCCCC2)n1,0.65,.,.,.,.,.,5%,2.5,.
O=C(CNC(=O)c1cccc(Br)c1)N/N=C/c1ccc2c(c1)OCO2,.,.,-1.1,11,i,-2.3,-5%,2.9,5
COc1cccc(C2c3[nH]c4ccccc4c3C[C@H]3C(=O)N(C4CC4)CC(=O)N23)c1 (stereo partly drawn),0.68,3,1.0,16,i,3.8,0%,-1.9,10
NS(=O)(=O)c1ccc(N=Cc2c(O)c3ccccc3oc2=O)cc1,.,3,-1.0,-21,i,-2.1,-6%,-2.5,-14
Cc1csc2nc(CN3CCN(CC(=O)N(C)C)CC3)cc(=O)n12,0.66,-4,2.1,.,i,.,-1%,0.6,.
CC=Cc1ccc2n(c1=O)C[C@@H]1[C@@H](CO)[C@H](C(=O)NC3CCC3)[C@H]2N1C(=O)c1ccccn1 (mixture of isomers),.,.,-0.7,-4,i,-2.3,.,.,1
CN(C1CCCCC1)S(=O)(=O)c1ccc(NC(=O)Cn2nc(-c3ccc(F)cc3)ccc2=O)cc1,0.73,-2,.,.,.,.,2%,-1.6,.
COc1ccc(OC)c(N2CC(O)(c3ccccc3)[N+]3=C2SCCC3)c1 (stereo not drawn),0.7,.,-0.8,4,i,5.0,12%,-5.6,9
